Screening results as filed in PubChem.
NPYLR7 ag = mosquito NPYLR7 agonism; HEK293T NPYLR7/Galpha15, GCaMP6s calcium fluorescence; AID 1259423; actives 0.15% (n = 270,000); activation, % at 10 µM; in the data active = activation above about 40%;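 also: 0% = vehicle and 100% = reference agonist at the receptor; some compounds past the cut are filed as inactive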
NPYLR7 ag max-min = also measured in NPYLR7 ag; calls as there; activation, %; measured here: Max-Min RFU normalised activation; some inactives read as strong as hits;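 span of the calcium signal over five minutes; 0% = vehicle and 100% = native peptide agonist; compound fluorescence can raise it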
The depositor's hits bear a star; & = joins results of further samples.

SMILES	NPYLR7 ag	NPYLR7 ag max-min
Fc1ccc(-c2cn3nc(CNc4ccc5c(c4)OCO5)n4c3c2CCCC4)cc1	6	3
CCC1(C)Cc2ccccc2-c2nc(NCCO)n(-c3ccc(C)cc3)c(=O)c21 (centres undefined)	-9	-13
CC1(C)CC1(C(=O)NCCn1[nH]c(=O)ccc1=O)c1cccs1 (centres undefined)	12	4
O=C1NCC(=O)N2CCN(C(=O)CCc3ccsc3)CC12 (centres undefined)	3	1
O=[N+]([O-])c1c[n+]([O-])n(-c2cccc(Cl)c2)n1	74*	79*
CCOC(=O)N1[C@@H](c2ccccc2)[C@@H](CO)C[C@]12CCCCN(C)C2=O	5	11
CC(NC(=O)Nc1cccc(I)c1)c1ccncc1 (centres undefined)	13	5
COC(=O)c1ccc(N=Nc2c(C)[nH]n(-c3ccccc3)c2=O)cc1	-6	-12
Cc1[nH]c2c(F)cccc2c1CC(=O)NCc1cc(=O)[nH]cn1	22	10
CN(Cc1nc2ccccc2[nH]1)C(=O)CC1C(=O)NCCN1Cc1ccc(F)cc1Cl (centres undefined)	-5	-4
COc1cccc(S(=O)(=O)NCCNc2cc(-n3cccn3)nc(C)n2)c1	-5	-11
CC1CN(C(=O)c2ccc3c(c2)OCCO3)C(=Nc2ccc(Cl)cc2)S1 (centres undefined)	16	16
CCN(CC)P1(=Nc2cccc(C(F)(F)F)c2)C(=C2N(C)c3ccccc3C2(C)C)C=NN1C (centres undefined)	6	11
Cc1ccc(CC(C)NC(=O)NCCC(=O)NC2CCCC2)s1 (centres undefined)	2	2
COc1cc(-c2nc(C=Nc3ccccc3Cl)c(O)o2)cc(OC)c1OC	-1	3

One compound at a time (already shown). Order of screens: NPYLR7 ag | NPYLR7 ag max-min
`CCOC(=O)N1[C@@H](c2ccccc2)[C@@H](CO)C[C@]12CCCCN(C)C2=O` reads 5 | 11
`COc1cccc(S(=O)(=O)NCCNc2cc(-n3cccn3)nc(C)n2)c1` reads -5 | -11
`O=[N+]([O-])c1c[n+]([O-])n(-c2cccc(Cl)c2)n1` reads 74* | 79*

Additional compounds.
SMILES	NPYLR7 ag	NPYLR7 ag max-min
CC1(C)O[C@@H]2C[C@@](OCc3ccccc3F)(C(=O)NCc3ccco3)CC(OCc3ccc(C#N)cc3)[C@@H]2O1 (some centres undefined)	27	22
CCCNC(=O)CS(=O)Cc1cc(Br)ccc1OC (centres undefined)	3	0
Cc1ccc(N=Nc2cc(-c3ccccc3)oc2O)c(C)c1	-5	-4
Brc1ccccc1-c1nnc(CON=C2c3ccccc3-c3ccccc32)o1	13	11
Cn1nccc1C(=O)N1CCCC(C(=O)c2ccc3c4c(cccc24)CC3)C1 (centres undefined)	10	9
CN(C)C1CCN(C(=O)c2cnn(-c3nccc(-c4cc5ccccc5o4)n3)c2C2CC2)C1 (centres undefined)	15	6
O=C(CCl)Nc1ccccc1[N+](=O)[O-]	0	-5
Brc1cnn(-c2nc(N3CCOCC3)nc(N3CCOCC3)n2)c1	4	0
CN(CCc1noc(C2CC2)n1)C(=O)c1ccc2cccc(F)c2n1	2	-1
Cc1nonc1N1CCN(Cc2nc(-c3ccc(C(F)(F)F)cc3)no2)CC1	18	9
O=C1NC(=O)C(c2csc3ccccc23)N1 (centres undefined)	-2	5
Cc1cn2c3c(=O)n(CCC(C)C)c(=O)n(C)c3nc2n1-c1ccc(S(N)(=O)=O)cc1	8	9
O=C1CCCc2ccc(NS(=O)(=O)c3cccs3)cc21	-4	-4
CN(C)CC1(O)CCN(C(=O)c2[nH]cnc2-c2ccccc2)C1 (centres undefined)	4	7
Cc1occc1CN(C)C(=O)Nc1ccc(=O)n(C)c1	0	12
O=S(=O)(Nc1nccnc1N1CCN(S(=O)(=O)c2ccc3c(c2)OCCO3)CC1)c1ccc2c(c1)OCCO2	18	21
Cc1ccc2[nH]nc(C(=O)N3CCCC4(CCNC4)C3)c2c1 (centres undefined)	-1	0
COc1ccc(NC(=O)CN2CCOCC2c2ccccc2)cc1 (centres undefined)	-24	-26
CCNC(=S)N(CCOC)Cc1c(-c2ccc(F)cc2)noc1N(CC)CC	17	12
CC1(C(=O)Nc2cccc(NS(C)(=O)=O)c2)CCN1Cc1csc2ccccc12 (centres undefined)	-4	-5
Cc1ccc(NC(=O)CC(=O)N2CCC(C(O)CC(C)C)CC2)cc1Cl (centres undefined)	5	2
CC(Sc1nc2ccsc2c(=O)n1C)C(=O)NC1CCCC1 (centres undefined)	5	1
CC/C=C\CCCN1CCC2(CC1)CNC(=O)C2	3	4
COC1(CNC(=O)c2nnn(-c3ccccc3)c2C)CCOCC1	2	0
Cc1ccc(-c2cc(NS(=O)(=O)c3ccccc3)n(C3CCS(=O)(=O)C3)n2)cc1 (centres undefined)	0	-1
Clc1cccc(CNc2ccc3nccnc3n2)c1	-1	-3
COC(=O)c1ccc(-c2noc(CN3CCCN(c4ccccc4)CC3)n2)cc1	13	3
Cn1c(SC2CCCCCC2=O)nnc1-c1ccc(C(C)(C)C)cc1 (centres undefined)	4	3
COc1ccc(C2c3cc(OC)c(OC)cc3CCN2C(=O)C2(c3ccc(Cl)cc3)CCCC2)cc1OC (centres undefined)	4	-2
COCCN(Cc1cccc(OS(=O)(=O)c2ccc(OC)cc2)c1)C(=O)Nc1ccccc1OC	10	21

Of the compounds above, 2 have an aryl thioether with sulfur outside any ring.
SMILES	NPYLR7 ag	NPYLR7 ag max-min
CC(Sc1nc2ccsc2c(=O)n1C)C(=O)NC1CCCC1 (centres undefined)	5	1
Cn1c(SC2CCCCCC2=O)nnc1-c1ccc(C(C)(C)C)cc1 (centres undefined)	4	3

(list continues)
SMILES	NPYLR7 ag	NPYLR7 ag max-min
Cc1nnc(SC(C)c2nnc(C(F)(F)F)o2)s1 (centres undefined)	4	3
CC1=NNc2nc3c(c(=O)n(CC=Cc4ccccc4)c(=O)n3C)n2C1C (centres undefined)	6	0
CCOCCN1CCN(C(=O)CCc2ccc(-c3ccc(F)cc3)n2-c2ccc(NC(C)=O)cc2)CC1	0	-1
COc1cc(C(=O)N2CCC3(CC2)C(=O)NCCN3C)nc(OC)n1	6	2
CCOC(=O)c1nn(-c2ccc(F)cc2)c(=O)c2c(NC(=O)CCCCl)scc12	0	-3
Cc1ccc(CN(CCN(C)C)C(=O)c2cnc3ccccn23)s1	15	13
CC(=O)[C@H]1CC[C@H]2[C@@H]3CCC4=CC(=O)CC[C@]4(C)[C@H]3CC[C@]12C	-13&-7&1	-19&-8&-23
CC(=O)N1c2ccccc2N=C2CC(C)(C)CC(=O)C2C1c1cccc(Br)c1 (centres undefined)	2	1
C/C=C(\C)C(=O)N1CCC(c2cn(Cc3cccc(F)c3)c3ccccc23)CC1	21	8
O=C(Nc1ccc(-c2nc3cc(Cl)ccc3o2)cc1)C1CCC1	1	3
Cc1cc(C(=O)N(CCCN(C)C)c2nc3c(C)ccc(Cl)c3s2)no1	2	1
COc1cn2c(cc1=O)C(=O)N(CCNC(=O)c1ccc3c(c1)OCO3)CC2	11	2
Cc1ccc(-c2nc(C(=O)N3CCN(C(=O)NC4CCCCC4)CC3)cs2)c(C)c1	2	0
Cc1ccc(NC(=O)C2CSCN2C(=O)c2ccoc2C)c(C)c1 (centres undefined)	12	4
O=C(c1ccc(F)c(F)c1)N1CCN(S(=O)(=O)c2cccs2)CC1	-1	-3
COc1ccc2cc(C(=O)NCC(=O)N(C)C)ccc2c1	-2	1
COCC1N(C(=O)c2cnccn2)C2CCC1(O)CC2 (centres undefined)	32	34
O=C(Oc1ccc2oc(=O)cc(-c3cc4ccccc4o3)c2c1)N1CCOCC1	2	-1
Cc1sc(-c2ccccc2N)nc1-c1ccc(F)cc1F	-6	-6
CN(C)c1nc(Oc2ccc(=O)[nH]n2)nc(N2CCOCC2)n1	-2	-1
CC(NC(=O)/C=C/c1cccnc1)c1cccc(Br)c1 (centres undefined)	2	0
Cn1nc(C(C)(C)C)cc1NC(=O)C1CCCN(C2=NS(=O)(=O)c3ccccc32)C1 (centres undefined)	8	3
Cc1cc(-c2cc(C3CCN(C(=O)C4CC(=O)C4)C3)ccn2)ccc1F (centres undefined)	5	3
C=CCCC(O)CN(CCc1nc(-c2ccc(Br)cc2)no1)Cc1ccco1 (centres undefined)	5	4
CNC(=O)[C@@H]1C[C@H](N)CN1Cc1nccn1-c1ccc(OC)cc1	7	24
CCC(=O)Nc1ccc(N(C)C)c(CN(CCOC)C(=O)c2cccc(F)c2)c1	4	13
O=C(Cn1ncccc1=O)Nc1cccnc1	4	3
Cc1c(C(=O)NCc2ccc(F)cc2)sc(=O)n1Cc1ccc(F)c(Cl)c1	12	6
Cc1cccc(Cn2c(=O)c(C(=O)NCC3CC3)nn(-c3ccc(C)c(C)c3)c2=O)c1	15	16
Cc1ccn2c(=O)nc(SCc3cccc(C(F)(F)F)c3)nc2c1	-1	-3

Seven entries already listed, arranged by length of the SMILES, lowest first.
SMILES	NPYLR7 ag	NPYLR7 ag max-min
O=C(Cn1ncccc1=O)Nc1cccnc1	4	3
COCC1N(C(=O)c2cnccn2)C2CCC1(O)CC2 (centres undefined)	32	34
COc1ccc2cc(C(=O)NCC(=O)N(C)C)ccc2c1	-2	1
CN(C)c1nc(Oc2ccc(=O)[nH]n2)nc(N2CCOCC2)n1	-2	-1
C=CCCC(O)CN(CCc1nc(-c2ccc(Br)cc2)no1)Cc1ccco1 (centres undefined)	5	4
Cc1cc(-c2cc(C3CCN(C(=O)C4CC(=O)C4)C3)ccn2)ccc1F (centres undefined)	5	3
Cc1c(C(=O)NCc2ccc(F)cc2)sc(=O)n1Cc1ccc(F)c(Cl)c1	12	6

(next part)
SMILES	NPYLR7 ag	NPYLR7 ag max-min
CCOc1ccc(CN2C[C@H](N(C)C)C[C@H]2C(=O)OC)cc1Cl	6	4
O=C(CSc1nc2c(cnn2CCO)c(=O)[nH]1)Nc1cc(C(F)(F)F)ccc1Cl	8	5
Cc1cc(F)ccc1S(=O)(=O)Nc1cc(-c2ccccc2)on1	0	-3
Cc1nc2ccccn2c(=O)c1NC(=O)c1cccc([N+](=O)[O-])c1	4	3
O=C(CSc1nnc(NC(=O)c2ccc(Cl)cc2Cl)s1)c1ccc(F)cc1	6	13
Cc1cc(S(=O)(=O)N2CCCc3cccc(F)c32)sc1C(=O)O	-2	-4
O=C(Cc1ccc(Cl)cc1)NCCc1csc2nc(-c3cccc(F)c3)nn12	18	8
O=C(NN=C1CCCC1)NC1CCCCC1	0	1
Cc1cccc(Cn2cc(C(=O)O)c(S(=O)(=O)N3CCOCC3)n2)c1	-8	-9
CCc1[nH]n(-c2ccc(Cl)c(Cl)c2)c(=O)c1C1=C(N(C)CC)C(=O)N(c2cccc(C)c2)C1=O	-19	2
Cc1ccc(-c2nc(CN(C)Cc3ccsc3)cs2)o1	7	7
O=C(Nc1ccc2c(c1)OCO2)NC1CC(=O)N(CCc2ccccc2)C1 (centres undefined)	19	13
Cc1ccc(S(=O)(=O)N2CCOCC2)cc1NC(=O)CCc1ccc(Cl)s1	6	2
CCCc1[nH]n(-c2ccc(Cl)c(Cl)c2)c(=O)c1/C=C1\NC(=O)N(Cc2ccc(C)cc2)C1=O	56*	55*
CC(NC(=O)C1CCN(S(=O)(=O)c2cc(Cl)ccc2Cl)CC1)C1CC1 (centres undefined)	12	12
Cc1ccc(CN2CCN(c3cc(C4CCNCC4)nc(C)n3)CC2=O)cc1	-1	-2
CCCN1CC=C2C(C#N)C(=N)C(C#N)(C#N)C(c3ccsc3)C2C1 (centres undefined)	16	8
FC(F)Oc1ccc(N=Cc2ccsc2)cc1	-6	-5
CC(C)CCNc1ncnc2c1sc1nc(N3CCOCC3)c3c(c12)CC(C)(C)OC3	12	6
O=C(Cn1ncc2ccccc2c1=O)NCC1(c2ccccc2)CCC1	11	8
O=C1C2C3C=CC(C3)C2C(=O)N1c1ccc2c(c1)CCC2 (centres undefined)	-10	-15
COCCCN(CC(=O)N(CCc1c[nH]c2ccccc12)Cc1ccc(C)cc1)C(=O)Nc1ccccc1Br	-8	-10
CC(C)(C)OC(=O)NCCCCCC(=O)N1CCC(c2ccccc2)CC1	-11	-15
Nc1cc(-c2cccc(C(F)(F)F)c2)nn1-c1ccc(C(=O)Nc2ccc(-c3ccccc3)cc2)cc1	-11	-22
FC(F)(F)c1ccc(/C=N\Nc2nc(N3CCOCC3)nc(N3CCOCC3)n2)cc1	-5	-10
Cc1cc(C(C)(C)C)cc(C)c1CNc1ccccc1CS(C)(=O)=O	8	8
CCN(C)c1nc(-c2ccccc2)nc2c1CN(C(=O)Nc1ccccc1OC)CC2	-3	7
O=C(CC(c1ccccc1)c1ccccc1O)N1CCNCC1 (centres undefined)	13	5
COCCOc1cccc(NCc2ccccc2C)c1	-1	-3
CC(c1cccc(NC(=O)c2ccccc2)c1)N(C)C(=O)C1Cc2ccccc2O1 (centres undefined)	9	5
N#CC1=C(c2ccccc2)N=P(N2CCOCC2)(N2CCOCC2)N=C1N1CCOCC1	-1	15
CC(C)C(=O)N1CCSC1c1ccc(Cl)cc1Cl (centres undefined)	12	15
O=C(O)c1c(F)ccc(S(=O)(=O)NC2CC2)c1F	0	2
CS(=O)(=O)Oc1ccccc1CN(Cc1ccco1)C(=O)c1cccc(F)c1	-5	-1
CCOc1ccc(-c2cc(C(=O)N3CCCC3c3cccnc3)c3ccccc3n2)cc1 (centres undefined)	-5	2
COCCOc1nc(-c2cccc(F)c2)n(-c2cccc(NC(=O)c3cccc([N+](=O)[O-])c3)c2)n1	-5	10
COc1ccc(NC(=O)C2CSCN2C(=O)c2cccc3c2OCO3)cc1 (centres undefined)	1	60
C/C=C/C=C/C(=O)NCCCOc1cccc([N+](=O)[O-])c1	-7	-14
N#Cc1ccc(C2=CSC3=NS(=O)(=O)CCN23)cc1	11	7
CCOC(=O)c1nn(-c2ccc(F)cc2)c(=O)c2c(NC(=O)C(C)Oc3ccccc3)scc12 (centres undefined)	6	1

Looked up by compound from above (3):
SMILES	NPYLR7 ag	NPYLR7 ag max-min
CCOc1ccc(-c2cc(C(=O)N3CCCC3c3cccnc3)c3ccccc3n2)cc1 (centres undefined)	-5	2
COc1ccc(NC(=O)C2CSCN2C(=O)c2cccc3c2OCO3)cc1 (centres undefined)	1	60
CS(=O)(=O)Oc1ccccc1CN(Cc1ccco1)C(=O)c1cccc(F)c1	-5	-1

This is a subset, so the mix of outcomes need not match the whole.
